Source: PubChem BioAssay
KCNQ2 enhance: enhances the rat KCNQ2 potassium channel. O88943. CHO-K1 KCNQ2, FluxOR thallium flux fluorescence; active compounds read high. B-score at 10 µM. actives 0.54% (n = 310,000). AID 2239;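 active means fluorescence ratio B-score at least 3 SD of library B-scores, with initial fluorescence B-score within 3 SD, cut at about 5.3 in these data; same plate scores as AID 2156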;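 further: B-score of peak minus minimum over baseline fluorescence ratio after K+ and Tl+ stimulus; positive B-score means potentiation of KCNQ2 with more thallium influx and brighter signal; only the inactives scoring about 0 or higher are listed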
Target sequence (O88943 whole entry, looked up): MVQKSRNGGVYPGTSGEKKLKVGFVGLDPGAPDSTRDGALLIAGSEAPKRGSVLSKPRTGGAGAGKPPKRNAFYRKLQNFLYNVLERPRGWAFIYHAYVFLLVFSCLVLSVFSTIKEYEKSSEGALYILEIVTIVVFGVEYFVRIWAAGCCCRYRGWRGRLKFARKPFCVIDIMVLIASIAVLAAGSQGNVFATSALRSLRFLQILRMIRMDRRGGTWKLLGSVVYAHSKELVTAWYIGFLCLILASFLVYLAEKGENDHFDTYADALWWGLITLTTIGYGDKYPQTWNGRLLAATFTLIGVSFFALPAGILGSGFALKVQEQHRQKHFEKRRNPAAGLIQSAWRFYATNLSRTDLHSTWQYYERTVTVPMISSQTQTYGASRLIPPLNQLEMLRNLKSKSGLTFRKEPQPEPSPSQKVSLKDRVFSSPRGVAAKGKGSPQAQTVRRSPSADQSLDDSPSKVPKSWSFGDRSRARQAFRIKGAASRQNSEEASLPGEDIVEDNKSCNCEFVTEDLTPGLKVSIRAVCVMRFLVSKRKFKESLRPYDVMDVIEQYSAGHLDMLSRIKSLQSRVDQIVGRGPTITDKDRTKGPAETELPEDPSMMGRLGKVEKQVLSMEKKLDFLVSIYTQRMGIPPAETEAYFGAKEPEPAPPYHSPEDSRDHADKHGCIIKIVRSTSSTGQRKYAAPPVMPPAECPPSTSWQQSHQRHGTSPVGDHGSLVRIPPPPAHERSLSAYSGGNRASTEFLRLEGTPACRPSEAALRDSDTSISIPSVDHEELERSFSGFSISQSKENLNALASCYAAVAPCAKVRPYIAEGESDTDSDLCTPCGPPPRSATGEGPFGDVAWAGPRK
KCNQ2 enhance baseline: second read-out of KCNQ2 enhance, no call of its own (marks repeat the call); B-score; compound at 10 µM; measured here: initial fluorescence intensity artifact check;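 brightness before thallium and not channel activity; 0 = typical well and far values either way flag optical interference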
* = called active by the depositor.

SMILES	KCNQ2 enhance	KCNQ2 enhance baseline
CCCC1=NN2C(=N)/C(=C\c3cc(C)n(Cc4ccccc4)c3C)C(=O)N=C2S1	12*	-0.77*
CCOc1ccc(C(=O)Nc2nnc(C)s2)cc1OCC	2.3	-0.24
Cc1ccc(S(=O)(=O)NCC(=O)N(CC(=O)NCC2CCCO2)C2CCCC2)cc1 (stereo unspecified)	0.2	1.2
O=C(CN1C(=O)CCS(=O)(=O)c2ccccc21)NCc1ccccc1	0.98	0.26
O=C(CCl)Nc1cccc(Oc2cnccn2)c1	2.2	1.3
CCOC(=O)c1c(C)[nH]c(C)c1S(=O)(=O)N(C)CC(=O)Nc1cccc(C)c1	1.2	2
Cc1nnc(SCC(=O)NCC(=O)Nc2ccc(F)c(F)c2F)n1Cc1ccccc1	1.7	-1.2
COc1ccc(C2C(C(C)=O)=C(Nc3ccccc3)CC(C)(O)C2C(C)=O)cc1OC (stereo unspecified)	0.05	-0.78
CCN(CC)S(=O)(=O)c1cc(NC(=O)CCNC(=O)c2ccco2)ccc1C	1.4	0.95
CC1CCCC(n2c(=S)[nH]c3ccccc3c2=O)C1C (stereo unspecified)	11*	0.53*
CC1CCN(CC(=O)N2c3ccccc3CC2C)CC1 (stereo unspecified)	0.66	-0.46
CNc1nc(SCc2ccccc2)nc(N2CCOCC2)n1	1.4	0.02
COc1ccccc1NC(=O)C1CCN(S(C)(=O)=O)CC1	0.05	0.61
COc1ccc2c(c1)c(=O)oc1cc(OCC(=O)N3CCC(C)CC3)ccc12	0.35	-1.3
CC(=O)Nc1ccc(-c2cc(C(=O)O)c3ccc(C)cc3n2)cc1	0.86	1.1
COc1ccc(OCC(=O)Nn2c(-c3ccc(OC)cc3)nc3ccccc3c2=O)cc1	1.2	-0.87
CCN(CC)c1ccc(NC(=O)Nc2ccccc2)cc1	3.1	-0.21
CCc1nnc(NC(=O)c2cc(-c3ccccn3)nc3ccccc23)s1	2.8	-2.4
Cc1cc(C)c(C#N)c(SC2CCCCC2=O)n1 (stereo unspecified)	2.7	-0.55
COc1ccc(C(C2C(=O)CC(C)(C)CC2=O)C2C(=O)CC(C)(C)CC2=O)cc1	0.16	0.16

Looked up one by one from the list above, four records:
SMILES	KCNQ2 enhance	KCNQ2 enhance baseline
Cc1nnc(SCC(=O)NCC(=O)Nc2ccc(F)c(F)c2F)n1Cc1ccccc1	1.7	-1.2
CCN(CC)c1ccc(NC(=O)Nc2ccccc2)cc1	3.1	-0.21
CNc1nc(SCc2ccccc2)nc(N2CCOCC2)n1	1.4	0.02
COc1ccccc1NC(=O)C1CCN(S(C)(=O)=O)CC1	0.05	0.61

New compounds follow:
SMILES	KCNQ2 enhance	KCNQ2 enhance baseline
CCCCc1nc2cc(Cl)ccc2o1	0.33	0.95
COc1cccc2cc(C(=O)Oc3ccc(NC(C)=O)cc3)c(=O)oc12	0.22	-1
COc1ccc(C(=O)NCc2nnc(SCC(=O)Nc3nc4ccccc4s3)o2)cc1	2.6	-1.2
COc1ccc(C(=O)NC(Cc2ccc(OC(=O)c3ccc(OC)cc3)cc2)C(=O)O)cc1 (stereo unspecified)	0.23	0.3
CCOC(=O)CN1C(=O)C(O)(CC(=O)c2ccco2)c2ccccc21 (stereo unspecified)	0.04	-0.07
Cc1cc(Cl)ccc1NC(=S)Nc1ccccn1	1.4	-0.01
CC1(C)Cc2nc(N3CCOCC3)c(C#N)cc2CO1	0.05	-3.4
CCOC(=O)N1CCN(c2c(NCCc3ccc(OCC)c(OCC)c3)c(=O)c2=O)CC1	0.33	-1.4
COc1cc(/C=C/C(=O)O)cc(S(=O)(=O)N(CC(C)C)CC(C)C)c1OC	1.1	0.36
CC1(C)CC(=O)c2sc(NC(=O)c3ccco3)nc2C1	0.9	0.24
O=C(Nc1ccc2c(c1)C(=O)N(CC1CCCO1)C2=O)c1cccc(Br)c1 (stereo unspecified)	0.66	-0.07
COC(=O)c1[nH]c2ccccc2c1NC(=O)CCN1CCSCC1	0.7	-0.81
COc1ccc(Nc2ncnc3c2cnn3Cc2ccccc2)cc1OC	2.3	0.09
O=C(Nc1cc(-c2nn(CC(=O)N3CCCCC3)c(=O)c3ccccc23)ccc1N1CCOCC1)c1ccc(Cl)cc1	1.2	0.04
CCn1c(C)nnc1SCC(=O)Nc1cccc(Cl)c1	0.53	-1.3
Cc1nnc(Nc2ccc(C(=O)N3CCOCC3)cc2)c2ccccc12	0.02	-1.2
O=C(c1sc2cc([N+](=O)[O-])ccc2c1Cl)N1CCOCC1	0.2	-0.87
N=C1/C(=C/c2cccs2)C(=O)N=C2SN=C(SCc3ccccc3)N12	3.9	-1.3
O=C(CCN1CCN(CCO)CC1)Nc1ccc(C2CCCC2)cc1	0.62	-1.4
CC(C)[C@H](N)C(=O)NC[C@H](CC(=O)NC[C@H]1CC[C@H](C(=O)O)CC1)c1ccc(Cl)cc1	0.55	-0.33
COCCNC(=O)c1ccccc1N(Cc1ccccc1)S(=O)(=O)c1ccc(C)cc1	0.59	-1.1
COC(=O)C(CCSC)NS(=O)(=O)c1ccc(Cl)cc1 (stereo unspecified)	0.06	-2.3
CCOCc1nnc(NC(=O)c2cccs2)s1	1.3	-0.86
CCOC(=O)C1CCCN(C(=O)CNS(=O)(=O)c2ccc(Br)s2)C1 (stereo unspecified)	0.54	0.65
Cn1c(N)c(C(=O)COC(=O)c2ccco2)c(=O)n(C)c1=O	2.4	0
CCOC(=O)C1(Cc2ccccc2)CCN(Cc2ccc3c(c2)OCCO3)CC1	0.8	-1.4
CCOC(=O)C(=O)Nc1cc(C(=O)OC)cc(C(=O)OC)c1	0.72	0.84
Cc1cc2nc(-c3ccco3)cc(C(F)(F)F)n2n1	0.81	-1.2
CCn1c2ccccc2c2cc(NC(=O)COC(=O)C3CCC(=O)N3)ccc21 (stereo unspecified)	0.27	-1.8
O=c1cc(N2CCN(c3cccc(Cl)c3)CC2)[nH]c(=O)n1C1CCCCC1	0.13	0.01
Cc1cc2c(c(=O)n1CCN(C)C)C(c1ccccc1Br)C(C#N)=C(N)O2 (stereo unspecified)	1.9	-0.37
CCC(C)(O)c1[nH]c2ccc(C(=O)OC)cc2c1C (stereo unspecified)	0.88	1.1
Nc1nc(NCc2ccco2)nc(N2CCCC2)c1[N+](=O)[O-]	0.13	1.3
COc1ccc(NC(=O)C(=O)NCC(=O)Nc2cccc(C(F)(F)F)c2)cc1	0.28	-0.67
CCC(CO)NCc1sccc1C (stereo unspecified)	2.1	-1.6
COc1ccc(C(=O)c2ccccc2Cl)cc1OC	0.1	-3.4
CCn1c(=O)[nH]c(=O)c2c(N)c(C(=O)c3cc(F)ccc3F)sc21	1.8	-0.91
COc1ccc(/C=C(\C#N)C(=O)OCC(=O)Nc2c(C)cccc2C)cc1	0.58	0.5
CC12CCC(C(=O)NNC(=O)c3ccc(F)cc3)(OC1=O)C2(C)C (stereo unspecified)	0.74	-0.98
CCCOC(=O)C1NC(=O)N2C(C(=O)OCCC)C(C)(C)S[C@H]12 (stereo partly specified)	0.2	-0.19
COc1ccc(C(=O)Nc2ccc(NS(=O)(=O)c3ccccc3)cc2)cc1OC	0.58	-0.49
Cc1nnc2c(-c3ccccc3)nc3ccccc3n12	0.67	0.5
COC(=O)c1ccc(NC(=O)CSc2nncn2C)cc1	0.38	1.1
CC1CN(C(=O)c2cccs2)CC(C)O1 (stereo unspecified)	1.1	0.31
COc1ccc(OCC(=O)Nc2ccc(S(=O)(=O)Nc3cc(C)nc(C)n3)cc2)cc1	0.98	-0.26
O=C(NCCCCc1ccccc1)c1ccc(Br)o1	2.4	-0.04
CCCCNC(=O)c1cc(C)nn1-c1ccccc1	0.81	0.2
COc1cc(CC(NC(C)=O)C(=O)NC2CCN(C(=O)C3CC3)CC2)cc(OC)c1 (stereo unspecified)	0.72	1.1
CCOc1ccc(NC(=O)N2CCC(n3nnc4ccccc43)CC2)cc1	0.01	-0.46
Cc1ccc(C(C)NC(=O)c2cccnc2)cc1 (stereo unspecified)	2.2	0.68
COc1cc(NC(=O)N2c3ccccc3Sc3ccccc32)c(C(=O)O)cc1OC	0.47	-2.1
CC(C)CC(=O)N1CCN(CC2CC=CCC2)CC1 (stereo unspecified)	2	1
O=C(NCc1ccccc1)N1CCC(n2cnc3cc(F)ccc32)CC1	0.61	-0.09
Cc1ccc(OCC(=O)N/N=C\c2ccco2)c(C)c1	4	1.8
CCNS(=O)(=O)c1ccc(CCC(=O)NCc2ccncc2)cc1	2.2	0.82
CC(C)NC(=O)NC(=O)CSc1nnc(-c2ccccc2F)n1N	2	0
CC(Oc1ccccc1)C(=O)NC1CC(C)(C)NC(C)(C)C1 (stereo unspecified)	1.4	-0.01
Cc1ccc(S(=O)(=O)N2C(=O)CCC2C(=O)Nn2cnnc2)cc1 (stereo unspecified)	0.01	0.17
O=c1[nH]c(CSc2nnnn2-c2ccccc2)nc2ccccc12	1.4	-1.1
CC1(C)CC(=O)C=C(NCc2cccnc2)C1	0.17	1.8
(further entries)
SMILES	KCNQ2 enhance	KCNQ2 enhance baseline
Cc1nnsc1S(=O)(=O)Cc1ccccc1Cl	1.1	-1.3
Cc1cccc(C(CC(=O)NCc2ccco2)c2ccccc2)c1O (stereo unspecified)	0.02	-0.68
CCn1c(C(C#N)/C(=N\S(=O)(=O)c2cccs2)c2ccccc2)nc2ccccc21 (stereo unspecified)	1.4	-0.04
O=S(=O)(c1ccc(Cl)cc1)N1CCN(C(=S)NCC2CCCO2)CC1 (stereo unspecified)	0.66	0.01
CC(=O)Oc1ccc(/C=N/NS(=O)(=O)c2ccccc2)cc1	0.09	1
CC1CN(CC(O)COC(c2ccccc2)c2ccccc2)CC(C)O1 (stereo unspecified)	1.1	-1.4
O=C(CNC(=O)c1ccccn1)N=Nc1c(O)[nH]c2ccccc12	1.9	-0.05
Nc1nnn(CC(=O)N/N=C/c2ccccc2Cl)n1	1.1	0.41
COCCCNC(=O)CSC1=Nc2ccccc2C2=NC(CC(=O)NCc3ccccc3)C(=O)N12 (stereo unspecified)	2.7	-2.5
Cc1oc2c(C)c3oc(=O)c(CC(=O)N[C@@H](CC(C)C)C(=O)N[C@@H](Cc4ccccc4)C(=O)O)c(C)c3cc2c1C	1.6	0.2
CCN(CC)C(=O)c1sc2nc(-c3ccc(OC)cc3)cn2c1C	0.38	2.7
COCCNC(=O)Cn1nc(C)c2ccccc2c1=O	0.29	-0.43
NC(=S)Cc1ccccc1Cl	2.5	-0.41
COCCNC(=O)c1csc(Nc2cccc3ccccc23)n1	0.33	-1
Cc1cc(O)c(NC(=O)c2cccc([N+](=O)[O-])c2)cc1C	0.03	1.6
CC(C)N1C(=S)SC(C)(C)C1n1oc(=O)n(-c2cccc(Cl)c2)c1=O (stereo unspecified)	0.93	-1.6
O=C(CC1(O)C(=O)Nc2ccccc21)c1ccc(-n2cccc2)cc1 (stereo unspecified)	1.6	-0.05
O=c1c2ccccc2cnn1Cc1cccc(Br)c1	0.01	-0.84
C=CCn1c(N)c(C(=O)OCC(C)C)c2nc3ccccc3nc21	0.13	-1.6
O=S(=O)(c1ccc(Cl)cc1)N1CCCCCC1	1.5	0.82

3 structures out of the list, arranged by length of the SMILES, high to low:
SMILES	KCNQ2 enhance	KCNQ2 enhance baseline
O=C(CNC(=O)c1ccccn1)N=Nc1c(O)[nH]c2ccccc12	1.9	-0.05
COCCNC(=O)c1csc(Nc2cccc3ccccc23)n1	0.33	-1
O=c1c2ccccc2cnn1Cc1cccc(Br)c1	0.01	-0.84

Single entries from the entries so far:
Value of `NC(=S)Cc1ccccc1Cl` under KCNQ2 enhance: 2.5
Value of `O=S(=O)(c1ccc(Cl)cc1)N1CCCCCC1` under KCNQ2 enhance: 1.5
Value of `C=CCn1c(N)c(C(=O)OCC(C)C)c2nc3ccccc3nc21` under KCNQ2 enhance: 0.13
Value of `CC1CN(CC(O)COC(c2ccccc2)c2ccccc2)CC(C)O1` (stereo unspecified) under KCNQ2 enhance: 1.1

Additional entries:
SMILES	KCNQ2 enhance	KCNQ2 enhance baseline
COc1ccc(NC(=O)CCN2C(=O)c3ccncc3C2=O)cc1OC	0.43	1.8
Cc1c(Br)c([N+](=O)[O-])nn1CC(=O)Nc1ccc(CC#N)cc1	1.6	-2.1
CCOC(=O)c1c(NC(=O)CSc2nnc(Cc3ccccc3)o2)sc(C(C)=O)c1C	2.3	-0.24
COC(=O)N1[C@H](C)C=C[C@]1(Cc1ccccc1)C(=O)OC	1.4	-0.04
Cc1cc(=O)oc2c(C)c(OCC(=O)N3CCN(c4ccccc4)CC3)ccc12	1.8	-1.3
Nc1ccc(CN2CCCCCC2)cc1	1.9	1.9
COC(=O)c1ccc(NC(=O)CN2C(=O)CSC2=O)cc1	1.6	-1.1
Cc1[nH]nc(SCC(=O)N2CCC(C)CC2)c1[N+](=O)[O-]	0.55	-0.68
CN(C)S(=O)(=O)c1cc(NC(=O)CNCCN2CCOCC2)ccc1Cl	0.47	0.92
Cc1cc(C)c(NC(=O)COC(=O)CCc2ccc(S(=O)(=O)N3CCCCC3)cc2)c(C)c1	0.19	0.05
O=C(CC1S/C(=N/N=C/c2cccs2)NC1=O)Nc1ccc(Cl)cc1 (stereo unspecified)	0.09	0.15
Cc1cccc(Nc2nc(-c3ccccn3)cs2)n1	0.38	-0.82
OCCC1CN(Cc2cc3c(cc2Cl)OCO3)CCN1C1CCCCC1 (stereo unspecified)	0.87	-1.4
O=C(Nc1cccnc1)c1cc(S(=O)(=O)N2CCOCC2)ccc1Br	0.75	3.9
NNC(=O)COc1cccc(C(F)(F)F)c1	1.5	1.2
C=CCn1c(SCC(=O)NCC)nnc1-c1cc2c(s1)CCC(CC)C2 (stereo unspecified)	1.9	-1.3

A portion of the library, so the mix of outcomes need not match the whole.
